CSC inhib: cancer stem cell inhibition. cancer stem cell-like cells viability, luminescence. inhibition, % at 7.5 µM. 300,000 tested, 1.1% active;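 active = mean at 75% or more and at least half the replicates too; inconclusive = mean and replicates disagree; tested in HMLE shEcad cells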;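 also: 0% = median of negative and 100% = median of positive control wells; the first replicate is given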
MT1-MMP act inh: MT1-MMP (human) activation inhibition; GFP/RFP ratio change, % at 20 µM; AID 651647; HT1080 RFP-PRO-GFP cells, GFP/RFP ratio fluorescence, overnight; percent of plate control window, DMSO zero; 360,000 tested, 0.061% active; P50281;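 active = GFP/RFP ratio change of at least 30% with cell ATP level not reduced by more than half and red fluorescence within 50% of control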; also: strong numbers were not always called active
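Assay system: RFP-PRO-GFP reporter HT1080 cells; read-out basis: GFP/RFP fluorescence ratio; benchmarks: DMSO wells and RFP-L50D-GFP cells; doses: 20 µM single dose, 1% DMSO; schedule: overnight cell settling, then overnight compound exposure, 37 °C, 5% CO2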
HIV Env fusion: HIV envelope-mediated fusion inhibition; 360,000 tested, 1.1% active; HeLa-JRFL Env/CEM21 cell fusion, luciferase; AID 651610; inhibition, % at 12.3 µM;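 active = mean replicate inhibition score of at least 50 and every replicate individually at or above 50; inconclusive = only one of the two criteria met; inactive = mean below 50 and not all replicates reaching 50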;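 also: 0% = plate neutral controls and 100% = maraviroc near 300 nM; one replicate is shown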
Rce1 inhib: yeast Ras-converting enzyme inhibition | Q03530 | yeast membranes, quenched prenylated peptide cleavage fluorescence | calls only | 290,000 tested, 0.27% active | AID 2563;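 active = fall in fluorescence gain of 50% or more versus controls, with final raw signal at or below 3038400; inconclusive = same 50% fall but final raw signal above 3038400; inactive = fall in fluorescence gain under 50%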;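 also: plate controls were neutral control wells for no effect and wells lacking membranes for full effect; tested at 10 µM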
Target sequence (Q03530 whole entry, looked up): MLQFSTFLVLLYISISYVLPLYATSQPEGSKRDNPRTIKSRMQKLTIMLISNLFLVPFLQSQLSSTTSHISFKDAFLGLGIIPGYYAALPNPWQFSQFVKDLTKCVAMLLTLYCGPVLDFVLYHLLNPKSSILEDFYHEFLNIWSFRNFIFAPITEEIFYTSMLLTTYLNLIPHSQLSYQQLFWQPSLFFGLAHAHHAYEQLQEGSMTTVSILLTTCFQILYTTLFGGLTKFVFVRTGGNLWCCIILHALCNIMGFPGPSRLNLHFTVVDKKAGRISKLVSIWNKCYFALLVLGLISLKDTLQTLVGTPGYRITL
Yeast UUG start: yeast start codon fidelity modulation. S. cerevisiae UUG-firefly luciferase reporter, luminescence/redox ratio. activity score, % at 18.7 µM. 350,000 tested, 0.13% active. AID 602363;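 active = replicate mean at a twofold rise or more, about +100% in these data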;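 also: firefly luciferase made from a UUG start codon reports start codon fidelity; reporter light over untreated wells divided by growth signal over untreated wells; some hits fall short of that in this replicate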
eIF4H inh: inhibitors of RNA binding by human eIF4H. 290,000 tested, 0.94% active. AID 2012. inhibition, % at 35 µM. eIF4H fluorescence polarization binding assay;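 active = 50% or more with normal probe brightness, or confirmed in later tests; inconclusive = above 50% with abnormal brightness, or retests that disagree; inactive = below 50% or failed in later tests; about a fifth of its hits are not listed in these tables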;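 also: calls also rest on retests at 20 µM and on dose response follow-up; 0% = protein and probe with vehicle and 100% = probe without protein; strong numbers were not always called active; many hits fall short of the cut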
PABP FP inh: PABP-poly(A) binding inhibition. P11940. PABP-poly(A) RNA binding, fluorescence polarization. inhibition, % at 35 µM. 290,000 tested, 1% active. AID 2014;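 active = 50% or more with normal probe brightness, or confirmed in later tests; inconclusive = above 50% with abnormal brightness, or retests that disagree; inactive = below 50% or failed in later tests; about a fifth of its hits are not listed in these tables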;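 also: calls also rest on retests at 20 µM and on dose response follow-up; controls were probe without protein and protein plus probe with vehicle; some compounds called inactive have numbers as strong as hits; many hits fall short of the cut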
Target sequence (P11940 whole entry, looked up): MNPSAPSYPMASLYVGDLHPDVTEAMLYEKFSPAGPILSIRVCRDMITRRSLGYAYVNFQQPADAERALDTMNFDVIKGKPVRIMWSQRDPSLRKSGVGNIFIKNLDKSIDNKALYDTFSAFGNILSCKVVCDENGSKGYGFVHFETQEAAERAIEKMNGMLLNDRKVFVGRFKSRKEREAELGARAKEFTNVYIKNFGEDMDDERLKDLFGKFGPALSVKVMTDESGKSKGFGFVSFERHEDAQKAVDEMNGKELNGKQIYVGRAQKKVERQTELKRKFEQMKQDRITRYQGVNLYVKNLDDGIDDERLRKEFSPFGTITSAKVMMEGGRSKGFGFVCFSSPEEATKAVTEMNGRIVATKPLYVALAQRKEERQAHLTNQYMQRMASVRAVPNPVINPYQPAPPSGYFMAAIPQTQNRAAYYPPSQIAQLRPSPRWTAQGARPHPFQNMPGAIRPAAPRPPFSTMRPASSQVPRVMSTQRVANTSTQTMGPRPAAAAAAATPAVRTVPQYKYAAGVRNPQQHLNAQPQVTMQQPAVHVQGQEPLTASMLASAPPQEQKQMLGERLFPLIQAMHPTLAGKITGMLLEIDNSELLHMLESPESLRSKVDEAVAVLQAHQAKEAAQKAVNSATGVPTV
eIF4H inh retest: further read-out of eIF4H inh, marked with its call; inhibition, %; compound at 20 µM; confirmation average;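 mean of two retest wells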
PABP FP inh retest: further read-out of PABP FP inh, marked with its call; inhibition, %; compound at 20 µM; confirmation repeats;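 mean of two retest wells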
MT1-MMP act inh RFP: recorded beside MT1-MMP act inh, whose call it bears; RFP signal change, %; measured here: RFP expression control read;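 0 = vehicle wells; hits needed this value within 50% of zero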
An asterisk follows results filed as active; i = inactive; ? = inconclusive; / = not tested or not shown; & = joins results of further samples. An excerpt; rates above refer to the full screens.

SMILES	CSC inhib	MT1-MMP act inh	MT1-MMP act inh RFP	HIV Env fusion	Rce1 inhib	Yeast UUG start	eIF4H inh	PABP FP inh	others
O=C(c1ccc(S(=O)(=O)N2CCOCC2)cc1)N(c1cccc(Cl)c1)C1C=CS(=O)(=O)C1 (stereo not drawn)	12	-2	3	21	i	6	4	-1
Cc1cc(C)cc(-n2cccc2/C=C2/C(=N)N3C(=NC2=O)SN=C3S(C)(=O)=O)c1	72	-7	7	8	i	/	29*	79*	eIF4H inh retest=82*;PABP FP inh retest=81*
CCOC(=O)NC(C(Cl)(Cl)Cl)S(=O)(=O)c1ccccc1 (stereo not drawn)	9	1	-1	-27	i	/	2	0
Cc1ccc(-c2nc3ccc(Cl)cn3c2Cc2cccc(Cl)c2)cc1	/	-5	-3	-141	/	-12	/	/
CNS(=O)(=O)c1cn(CC(=O)NCc2ccc(F)cc2)cc1S(=O)(=O)NC	-12	1	5	-5	i	-11	-1	3
CC(c1ccccc1)n1c(CCCO)nc2ccccc21 (stereo not drawn)	-20	1	6	-8	i	-12	-2	8
N/C(Cc1ccc(Cl)cc1Cl)=N\OC(=O)c1ccccc1F	6	0	2	-11	/	/	-2	3
CCCN(C(=O)COC(=O)CCOc1ccc(C)cc1)c1c(N)n(Cc2ccccc2)c(=O)[nH]c1=O	-14	-8	0	-3	i	14	/	/
COc1nc(Nc2ccc([N+](=O)[O-])cc2)nc(NC(C)C)n1	-9	-2	-7	/	i	10	-8	7
O=C(Nc1ccc2c(c1)OCCO2)C(c1cc2ccccc2o1)N1CCC(Cc2ccccc2)CC1 (stereo not drawn)	/	-3	-4	6	/	-24	/	/
Cc1ccc2nc(SCC(=O)c3cc(C)n(C)c3C)[nH]c2c1	-7	3	2	/	i	/	3	20
CC(=O)c1c(C)[nH]c(C(=O)OCC(=O)N2CC(=O)Nc3ccccc32)c1C	2	4	9	23	i	/	-6	4
O=C(NCC(c1ccco1)N1CCN(c2ccc(F)cc2)CC1)c1ccc2c(c1)OCO2 (stereo not drawn)	20	3	-7	/	i	-5	/	/
CCn1c(C)nc2cc(C(=O)NNC(=O)Nc3cccc(Cl)c3)ccc21	6	0	1	-5	i	/	-6	-4
O=C(COC(=O)c1cccs1)NC1CCCC1	-13	6	9	-7	/	-21	-6	-6
CCCc1nc2c(C)cc(Br)cn2c1Cc1ccccc1C(F)(F)F	/	-7	-8	19	/	18	/	/
CCCCn1cc(SCC(=O)O)c2ccccc21	-11	4	5	2	i	-15	5	16
C[C@H](CO)N1C[C@H](C)[C@H](CN(C)C(=O)Nc2ccc3c(c2)OCCO3)OCc2cnnn2CCCC1=O	/	4	5	-18	/	18&-5	/	/
CC(C)OCCCn1c(SCC(=O)N2CCc3ccccc32)nc2ccccc2c1=O	17	-1	-6	2	i	/	8	5
CCC1CCCCN1C(=O)COc1c(Br)cc(Br)c2cccnc12 (stereo not drawn)	4	3	-2	-15	i	/	0	2
NC(=O)COc1ccc2cc(-c3ccccc3)c(=O)oc2c1	-20	5	4	-23	i	-20	-15	8
O=C(/C=C\Nc1ccc(S(=O)(=O)Nc2ncccn2)cc1)c1ccccc1	/	-9	-3	-21	/	25	-9	-1
CCOc1cc(/C=N/Nc2cc(C)nc3ccc(C)cc23)ccc1O	2	5	3	1	i	-13	-12	-7
Cc1ccc(S(=O)(=O)NNc2nnc(C)c(=O)[nH]2)cc1	7	0	2	4	/	/	-5	-12
CCCCn1c(SCC(=O)Nc2ccc3c(c2)OCO3)nc2c1c(=O)n(C)c(=O)n2C	-4	-1	-5	79*	i	0	3	1
Cc1cccc(OCC(=O)N2CCN(S(C)(=O)=O)CC2)c1	3	-3	3	2	i	/	37	45
CCOC(=O)C1=C[C@@H](C(C)(C)C)N(S(=O)(=O)c2ccc(C)cc2)[C@H]1c1ccccc1Cl	/	-1	-18	36	/	4	/	/
CN1C(=O)C(O)(C2COC(C)(C)CC2=O)c2ccccc21 (stereo not drawn)	-1	-1	3	/	i	-8	-11	4
COc1ccc(OC)c(NC(=O)Nc2ccc3[nH]ccc3c2)c1	-10	4	-3	-2	i	-5	/	/
CCOc1ccc(Cc2nc(C)c(CC(=O)N3CCCCC3)c(=O)[nH]2)cc1	1	0	5	/	i	1	5	7
Cc1ccc(C)c(NC(=O)Cc2nc(CCl)cs2)c1	-9	1	6	0	i	-28	10	-4
COc1ccc(N2C(=O)C(CC(=O)Nc3ccccc3)N(Cc3ccc(OC)c(OC)c3)C2=O)cc1 (stereo not drawn)	-15	-1	-3	57*	i	-21	-3	3
CCOC(=O)/C(C(N)=NCCCO)=C(/O)c1ccccc1	-8	0	6	-45	i	/	-7	-4
Cc1ccc(C(c2nnnn2C2CCCC2)N2CCc3ccccc32)cc1 (stereo not drawn)	-9	-7	-4	16	i	-24	-12	-14
Cc1[nH]nc2c1C1(CCN(C(=O)c3ccccc3)CC1)C(C#N)=C(N)O2	-14	2	5	42	i	-19	-9	-2
COc1ccccc1-n1c(C)cc(/C=C2/C(=N)N3C(=NC2=O)SN=C3S(C)(=O)=O)c1C	13	-2	-18	-14	i	/	67	-2	eIF4H inh retest=-6;PABP FP inh retest=-3
COc1ccc(NC(=O)c2ccccc2NC(=O)c2ccco2)cc1	23	-3	-2	7	i	/	2	3
CCc1ccccc1NC(=O)c1ccc(OCc2c(C)noc2C)cc1	11	7	0	13	/	-8	/	/
CCSCc1nnc(SCC(=O)Nc2cc(F)ccc2C)n1C	-12	1	4	8	i	-11	-1	17
COCCN1C(=O)/C(=C/c2ccc(N3CCCC3)cc2C)SC1=S	55	-11	65	18	i	/	?	?
COc1cc(C(=O)OCC(=O)NC2CCCC2)cc(NC(=O)c2ccco2)c1OC	-5	9	-1	-6	i	-9	-14	-2
CCc1ccccc1NC(=O)CN(C)C(=O)CSc1nnc(Nc2cccc(C)c2C)s1	-11	2	-5	-9	i	-5	-8	17
CCOC(=O)C1(C(F)(F)F)N=C(N(C)C)OC(N(C)C)=N1	-7	0	5	/	i	-4	1	6
Cc1noc(C)c1NC(=O)NC(c1ccccc1)c1ccccc1	-1	10	-4	-4	i	/	3	1
C=CCNC(=S)NCc1ccccc1	-17	7	6	-51	i	/	14	3

Four compounds drawn at random from those above:
SMILES	CSC inhib	MT1-MMP act inh	MT1-MMP act inh RFP	HIV Env fusion	Rce1 inhib	Yeast UUG start	eIF4H inh	PABP FP inh	others
Cc1ccc(C)c(NC(=O)Cc2nc(CCl)cs2)c1	-9	1	6	0	i	-28	10	-4
CCCCn1c(SCC(=O)Nc2ccc3c(c2)OCO3)nc2c1c(=O)n(C)c(=O)n2C	-4	-1	-5	79*	i	0	3	1
Cc1ccc2nc(SCC(=O)c3cc(C)n(C)c3C)[nH]c2c1	-7	3	2	/	i	/	3	20
CN1C(=O)C(O)(C2COC(C)(C)CC2=O)c2ccccc21 (stereo not drawn)	-1	-1	3	/	i	-8	-11	4

The list goes on.
SMILES	CSC inhib	MT1-MMP act inh	MT1-MMP act inh RFP	HIV Env fusion	Rce1 inhib	Yeast UUG start	eIF4H inh	PABP FP inh	others
Cc1cnc(NC(=O)CSc2nnc(Cc3ccccc3)n2C)s1	-14	0	0	/	i	/	-9	1
Cc1ccc(-c2noc(-c3cccs3)n2)cc1	-3	-2	-5	/	i	-23	-5	0
CC1(C(=O)Nc2cccc(C#N)c2)CCN1C(=O)c1ccccc1CCc1ccccc1 (stereo not drawn)	/	-3	-6	31	/	-2	/	/
CCOc1cc(NC(=S)NCC2CCCO2)c(OCC)cc1NC(=O)c1ccccc1F (stereo not drawn)	-8	3	-6	-5	i	/	-5	-6
COc1ccc(Cc2nnc(CCc3ccccc3)s2)cc1	-6	-1	0	-6	i	7	-5	-5
COC(=O)C1CCN(Cc2cc(=O)oc3cc(OC)ccc23)CC1	-8	-3	0	/	i	-12	0	-1
O=C(O)Cn1cc(/C=C2/NC(=O)N(c3ccc(Cl)cc3)C2=O)c2ccccc21	-6	6	7	-53	i	5	-2	-4
CCCCC(=O)N(C)c1c(C)nc2ccc(C(=O)Nc3cccc(NS(C)(=O)=O)c3)cn12	/	1	4	3	/	-13	/	/
CCOC(=O)N1CCN(c2nc(-c3ccccc3)c3ccccc3n2)CC1	34	-5	-5	/	i	-18	0	-8
C#Cc1ccc([C@H]2C=C(C(=O)N3CCN(Cc4ccccc4)CC3)O[C@@H](OCC)[C@@H]2CCCO)cc1	5	-1	-6	-19	i	-14	2	2
Cc1cccc(NC(=O)C2COc3ccccc3O2)c1 (stereo not drawn)	6	3	-3	-26	i	-16	2	-2
CC(=O)N1CCN(c2ccc(NC(=O)c3ccco3)cc2Cl)CC1	-3	3	4	7	i	-8	-18	1
COc1ccc(CNS(=O)(=O)c2cc(-c3cc(C)no3)ccc2OC)cc1OC	-6	6	3	-4	i	3	-6	-10
O=C(CN1N=C(c2ccccc2)CCC1=O)NCCCN1CCc2ccccc2C1	-7	1	3	13	i	3	-2	2
Cc1cccc(NS(=O)(=O)Cc2ccccc2)n1	5	1	4	/	i	-12	0	-11
CCN1CCN(CCn2c(=S)[nH]c3ccccc3c2=O)CC1	-2	5	3	-8	i	-16	-4	-8
Cc1ccc(S(=O)(=O)Nc2nc3ccccc3nc2NCC2CCCO2)c(C)c1 (stereo not drawn)	3	0	2	16	i	/	-8	0
CCCSc1nc2c(cnn2-c2ccc(C)cc2)c(=O)[nH]1	35	3	8	-13	i	-19	-1	-15
COc1ccccc1CC1CC(=O)N(c2cccc(Cl)c2C)C1=O (stereo not drawn)	-5	5	9	-4	i	6	15	-4
COc1ccc(CC(=O)OCC(=O)Nc2ccc(C(=O)Nc3ccc(OC)cc3)cc2)cc1	-1	5	1	-3	i	/	-30	-37
O=C(CC1SC2=NCCN2C1=O)Nc1ccc(Cl)cc1 (stereo not drawn)	-14	3	5	-44	i	4	-1	-6
CCN(C(=O)c1ccc2c(Cl)c3c(nc2c1)CCC3)c1ccc(C)c(C)c1	/	-6	-15	28	i	-6	-2	4
Cc1cccc(NC(=O)CSCC(=O)N2CCN(c3cccc(C(F)(F)F)c3)CC2)c1	-7	-2	1	/	/	-10	/	/
CCOC(=O)c1[nH]c2cc3c(cc2c1CCCN1C(=O)c2ccccc2C1=O)OCCO3	1	5	-3	-30	i	4	0	-1
Cc1ccccc1C(=O)NC1CC2CCCC(C1)N2CC(C)C (stereo not drawn)	/	3	4	14	/	-9	/	/
CC(=O)Nc1cccc(NC(=O)Cc2nc(-c3ccccc3)sc2-c2ccc(C)cc2)c1	12	-1	-1	-13	i	/	-9	2
Cc1c(NC(=O)CSc2nc3ccccc3n2C)c(=O)n(-c2ccccc2)n1C	0	3	6	/	i	-15	-1	-6
CC1=CC(C)(C)N2C(=O)C3(C(C#N)=C(N)OC4=C3C(=O)CC(C)(C)C4)c3c(C)c(C)cc1c32 (stereo not drawn)	/	9	-5	/	i	-8	-2	-3
C/C(=N\NC(=O)c1ccncc1)C12CC3CC(CC(C3)C1)C2	-16	-2	-1	/	i	/	10	11
O=C(c1cc(Br)c(Br)s1)N1CCc2ccccc2C1	12	-1	-4	6	/	-12	/	/
CCn1nc(C(=O)NNC(=O)c2ccccc2)c2ccccc2c1=O	/	-2	-1	-7	/	-7	/	/
Cc1cc(C)c(NC(=O)CNC(=O)c2cc([N+](=O)[O-])ccc2N2CCOCC2)c(C)c1	-12	1	2	-17	i	/	/	/
N#CCCN(C(=O)COc1ccc(Cl)cc1Cl)c1ccccc1	-9	3	4	6	i	12	-2	1
